GIRK2 act – GIRK2 channel activation; hit rate 0.05% among 63,000; calls only for hits at 25 µM; HEK293-GIRK2 thallium flux, Thallos fluorescence; AID 1259325; P48051;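 active = among the strongest 0.2% of first-round signals and kept after retests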;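 also: first round at about 10 µM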
Target sequence (P48051 whole entry, looked up): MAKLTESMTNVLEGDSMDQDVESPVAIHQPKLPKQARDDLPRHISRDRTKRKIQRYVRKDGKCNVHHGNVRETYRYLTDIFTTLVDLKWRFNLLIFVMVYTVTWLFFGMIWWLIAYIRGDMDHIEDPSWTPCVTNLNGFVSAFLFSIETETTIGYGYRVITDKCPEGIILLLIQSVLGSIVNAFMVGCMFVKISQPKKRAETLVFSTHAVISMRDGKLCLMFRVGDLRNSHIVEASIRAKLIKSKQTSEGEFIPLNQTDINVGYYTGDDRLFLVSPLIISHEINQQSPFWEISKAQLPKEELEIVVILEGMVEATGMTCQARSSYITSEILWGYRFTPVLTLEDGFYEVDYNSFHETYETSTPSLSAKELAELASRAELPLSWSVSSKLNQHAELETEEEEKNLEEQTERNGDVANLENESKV
Calls only; i = inactive. Some of the compounds tested; count on the stated rates, not on these rows.

GIRK2 act | molecule
i | COc1ccc(CCC(=O)N2CC3CC2C(=O)O3)cc1 (centres undefined)
i | O=C(NCc1ccc(C(=O)c2cccs2)s1)NC(c1ccccc1)c1ccccc1
i | COc1ccccc1-c1ccc(N2CCCC(C(=O)NC(C)C)C2)nn1 (centres undefined)
i | Cc1nsc(C(=O)NCCCN2CCCC2=O)n1
i | O=C(c1ccccc1C(F)(F)F)N1CCC(c2nnc(-c3ccco3)s2)CC1
i | COc1ccc(-c2csc3c(=O)n(CCOc4ccccc4)cnc23)cc1
i | CC(C)CCn1c(C2CC(=O)N(Cc3ccccc3)C2)nc2ccccc21 (centres undefined)
i | Cc1noc(-c2ccc(N3CCCC(C(=O)NCCCn4cccn4)C3)nc2)n1 (centres undefined)
i | CCN(C(=O)CSc1nc2cc(-c3ccccc3)sc2c(=O)n1C)c1ccccc1
i | COc1ccc(NC(=O)CSc2cc(NCc3ccc(Cl)cc3)ncn2)cc1
i | COc1ccccc1CNC(=O)C(=O)NCCC(O)C1CC1 (centres undefined)
i | Cc1ccc(C)c(N2CCN(c3ccc(S(=O)(=O)Cc4ccc(Cl)cc4)nn3)CC2)c1
i | COc1ccc(-n2c(C)cn3c4c(=O)n(CCN5CCCCC5)c(=O)n(C)c4nc23)c(OC)c1
i | COc1cccc(N2CCN(S(=O)(=O)c3ccsc3C(=O)NC3CCC(C)CC3)CC2)c1 (centres undefined)
i | COc1ccc(NC(=O)Cn2nc3c(SCc4ccc(Cl)cc4)nccn3c2=O)cc1
i | O=C(NC1CCCCCC1)c1nnn(-c2ccccc2F)c1-c1cccnc1
i | CCOC(=O)c1ccccc1NC(=O)Cn1nc2n(c(=O)c1=O)CCN2c1ccc(F)cc1
i | CCOc1ccc(NC(=O)Cn2cc(-c3ccccc3)c3ncn(C(C)C)c(=O)c32)cc1
i | CN(C)CC1COCCN1C(=O)CCS(=O)(=O)c1ccccc1 (centres undefined)
i | CCOc1cccc2cc(-c3nc(-c4cccc(OC)c4OC)no3)c(=O)oc12
i | Cc1cc(C)n(-c2nc(CCNS(=O)(=O)c3ccc(C(F)(F)F)cc3)cs2)n1
i | CCOC(=O)Cn1c(=O)c2c(nc3n(-c4cccc(OC)c4)c(C)c(C)n23)n(C)c1=O
i | CC1CCN(c2nccnc2Oc2ccc(C(=O)NC3CCc4ccccc43)cc2)CC1 (centres undefined)
i | COc1ccc(S(=O)(=O)Nc2ccc3c(c2)CCCN3S(=O)(=O)c2ccccc2)cc1OC
i | CS(=O)(=O)c1ccc(Nc2nc(C(=O)Nc3cccnc3)cs2)cc1
i | O=C(Cn1cccc(S(=O)(=O)N2CCCCC2)c1=O)Nc1ccc(F)c(Cl)c1
i | CC(C)NC(=O)NCCN1CCN(c2ccccc2)CC1
i | C=C(C)Cn1c(N2CCN(CC(N)=O)CC2)nc2c1c(=O)[nH]c(=O)n2C
i | COc1ccc(Oc2cnc(N)nc2-c2ccc(OCc3ccccc3F)cc2O)cc1
i | O=C(Nc1nc2c(s1)CN(C(=O)COc1ccccc1)CC2)c1cccs1
i | COc1ccc(Cl)cc1NC(=O)Cn1cc(-c2nc(-c3cnccn3)no2)ccc1=O
i | COc1ccccc1C(=O)N1CCN(c2nc3ccc(S(C)(=O)=O)cc3s2)CC1
i | NC(=O)CSc1ncc(-c2ccc(Br)cc2)n1-c1ccc(OC(F)F)cc1
i | O=C(NCc1ccccn1)c1ccc(Cn2ccnc2)cc1
i | O=c1c2sccc2nc(SCc2nc(-c3ccc(C(F)(F)F)cc3)no2)n1C1CC1
i | O=C(CSCc1ccccc1)NCC#CCN1CCOCC1
i | CCc1ccc(-n2nnc3c(=O)n(Cc4nc(-c5ccc(C)cc5)no4)cnc32)cc1
i | Cc1cc(NC(=O)NCCC2CCCCC2)no1
i | CC(=O)N1CC(Oc2nc3c(C(F)(F)F)cccc3s2)C1
i | Cc1ccnc(NC(=O)CCCn2nnc3ccccc3c2=O)c1
i | CSc1ccc(-c2noc(Cc3nnc(-c4ccc(F)cc4)o3)n2)cc1
i | Cc1cc(NC(=O)C2CCN(C(=O)c3cn(C)nn3)CC2)no1
i | CS(=O)(=O)N1CCC(c2nn(CC(=O)N3CCc4ccccc43)c(=O)n2-c2cccs2)CC1
i | Cc1ccc(S(=O)(=O)CCC(=O)N2CC(Oc3nc4c(F)cccc4s3)C2)cc1
i | CC(C)(C)c1noc(-c2ccc(-n3cnc(C(=O)NCc4ccccc4)c3)nc2)n1
i | Cn1cccc1C(CNC(=O)NC1CCCCC1)N1CCOCC1 (centres undefined)
i | Cc1csc(NC(=O)CN(C)c2nc3ccccc3s2)n1
i | CCc1[nH]nc(S(=O)(=O)Nc2ccc(OC)cc2F)c1C(=O)OC
i | CCOc1ccccc1N1C(=O)/C(=C/c2cccnc2)SC1=S
i | CCCCCn1c(SCc2cccc([N+](=O)[O-])c2)nc2cc(C(=O)N3CCOCC3)ccc2c1=O

In the list so far, these have an aryl thioether with sulfur outside any ring.
GIRK2 act | molecule
i | CCN(C(=O)CSc1nc2cc(-c3ccccc3)sc2c(=O)n1C)c1ccccc1
i | COc1ccc(NC(=O)CSc2cc(NCc3ccc(Cl)cc3)ncn2)cc1
i | COc1ccc(NC(=O)Cn2nc3c(SCc4ccc(Cl)cc4)nccn3c2=O)cc1
i | NC(=O)CSc1ncc(-c2ccc(Br)cc2)n1-c1ccc(OC(F)F)cc1
i | O=c1c2sccc2nc(SCc2nc(-c3ccc(C(F)(F)F)cc3)no2)n1C1CC1
i | CSc1ccc(-c2noc(Cc3nnc(-c4ccc(F)cc4)o3)n2)cc1
i | CCCCCn1c(SCc2cccc([N+](=O)[O-])c2)nc2cc(C(=O)N3CCOCC3)ccc2c1=O

Later entries
GIRK2 act | molecule
i | Cn1c(=O)n(CC(N)=O)c(=O)c2c1nc1n2CCCN1C1CCCCC1
i | COc1cccc(NC(=O)NCC(C)(O)CCSC)c1 (centres undefined)
i | Cc1cc(=O)n2c(-c3ccc(NS(=O)(=O)c4ccc(F)cc4)cc3)csc2n1
i | COc1ccc(SCC2CCN(C(=O)CN3C(=O)CCC3=O)CC2)cc1
i | COC(=O)N1CCOC(c2cc(Cl)cc(Cl)c2)C1 (centres undefined)
i | CC(C)CCNc1nc2c(c(=O)n(C)c(=O)n2C)n1CC(O)COc1ccccc1 (centres undefined)
i | COc1ccccc1NC(=O)c1ccc(NS(=O)(=O)c2cc(C)ccc2C)cc1
i | COc1ccccc1OCCN1C(=O)C(NC(C)=O)c2ccccc21 (centres undefined)
i | COc1cccc(CNC(=O)C(=O)Nc2ccc(C)c(F)c2)c1
i | COc1ccc(NC(=O)c2csc(Nc3ccc(S(C)(=O)=O)cc3)n2)cc1OC
i | CCN(CC)CCNc1nc2c(c(=O)[nH]c(=O)n2C)n1CCCOc1ccccc1
i | Cc1nn(-c2ccccc2)c(N)c(-c2ccccc2)c1=O
i | COc1ccccc1/C=C/C(=O)Oc1c(C)cccc1C
i | COCC(=O)NCc1nn(C2CCCC2)c(=O)c2ccccc12
i | Cc1ccc(-c2ccc(=O)n(Cc3nc(-c4cccs4)no3)n2)cc1C
i | O=C(NCCc1ccccc1)C(=O)Nc1cccc(N2CCCS2(=O)=O)c1
i | CCOc1ccc2ncc(C#N)c(N3CCC(C(=O)Nc4cc(C)c(Cl)cc4OC)CC3)c2c1
i | Cc1ccc(C)c(C(=O)N(CCc2cccs2)C2CC2)c1
i | O=C(Cn1cc(-c2ccc(F)cc2)cn1)NCCCc1ccccc1
i | O=C(CCSc1nnc2ccccn12)Nc1cccc(-c2nc3ccccc3s2)c1
i | CCOc1ccc(S(=O)(=O)N(CCc2cccs2)C2CC2)cc1C
i | CCOC(=O)N1CCC(NC(=O)CN(C)c2nc3c(OC)cccc3s2)CC1
i | CCOC(=O)Cn1c(=O)c2c(nc3n(-c4ccccc4CC)c(C)c(C)n23)n(C)c1=O
i | Cc1cc(C(=O)N2CCC(Oc3nc4c(F)cc(F)cc4s3)CC2)c(C)o1
i | COc1ccc(CC(=O)Nc2ccc(SC)nn2)cc1

The final 6 entries of the section above lead into the next:
GIRK2 act | molecule
i | O=C(CCSc1nnc2ccccn12)Nc1cccc(-c2nc3ccccc3s2)c1
i | CCOc1ccc(S(=O)(=O)N(CCc2cccs2)C2CC2)cc1C
i | CCOC(=O)N1CCC(NC(=O)CN(C)c2nc3c(OC)cccc3s2)CC1
i | CCOC(=O)Cn1c(=O)c2c(nc3n(-c4ccccc4CC)c(C)c(C)n23)n(C)c1=O
i | Cc1cc(C(=O)N2CCC(Oc3nc4c(F)cc(F)cc4s3)CC2)c(C)o1
i | COc1ccc(CC(=O)Nc2ccc(SC)nn2)cc1
i | CCOc1ccccc1C(=O)N1CCN(c2ncnc3c2nnn3-c2ccc(C)cc2)CC1
i | O=C(N1CCN(Cc2ccccc2)CC1)C12CC3CCC(CC(C3)C1)C2
i | NC(=O)C1CCN(CCOc2ccc(-c3[nH]ncc3-c3ccccc3)c(O)c2)CC1
i | c1cnc(SCCN2CCCC2)c(-c2nc3ccccc3[nH]2)c1
i | Cc1nnc(SCC(=O)Nc2ccc(C(C)(C)C)cc2)s1
i | Cc1cc(C(=O)NCC(O)(c2ccco2)C2CC2)no1 (centres undefined)
i | COc1ccccc1-c1noc(Cn2cnc3c(nnn3Cc3cccc(Cl)c3)c2=O)n1
i | COc1cccc(Cn2ccn(-c3ccccc3)c(=O)c2=O)c1
i | O=C(Nc1nc2c(s1)CN(C(=O)Nc1cccs1)CC2)c1ccco1
i | O=C(CCSc1ccccc1)Nc1cccc2ccc(-n3ccnc3)nc12
i | Cc1ccc(C(O)CNC(=O)CCCc2ccccc2)o1 (centres undefined)
i | O=C(c1ccc(OC(F)(F)F)cc1)N1CCC(Oc2ccc(C(F)(F)F)cn2)CC1
i | Cc1noc(-c2ccnc(SCC(=O)Nc3ccccc3)c2)n1
i | CCOc1ccc(-c2ccc(OCCNC(=O)c3c(F)cccc3Cl)nn2)cc1
i | COc1ccccc1OCCNC(=O)c1cnn2c(-c3ccc(C(C)C)cc3)ccnc12
i | Cc1ccnc(NS(=O)(=O)c2ccc(NC(=O)CN3C(=O)c4ccccc4S3(=O)=O)cc2)n1
i | CCOc1ccc(NC(=O)c2ccc(F)c(S(=O)(=O)N3CCN(c4ccccc4F)CC3)c2)cc1
i | COC(=O)c1ccccc1NC(=O)c1cccc(-n2cnnn2)c1
i | CCOc1ccccc1Oc1c(C)oc2cc(OC(=O)C(C)(C)C)ccc2c1=O
i | NS(=O)(=O)c1ccc(NC(=O)CSc2nnc(CCc3nc4ccccc4[nH]3)o2)cc1
i | CNC(=O)c1c(NC(=O)CCSc2ccccc2)sc2c1CCCCC2
i | COc1ccccc1CNC(=O)C(=O)NCCC(O)c1cccc2ccccc12 (centres undefined)
i | O=C(NCc1ccco1)C1CCCN(c2ccc(-c3ccc(Cl)cc3)nn2)C1 (centres undefined)
i | O=C(c1ccc(F)c(F)c1)N1CCC(CSc2ccccn2)CC1
i | COC(=O)N1CCc2ccc(F)cc2C1C(=O)Nc1ccccc1SC (centres undefined)

Fetched one by one from above (2):
GIRK2 act | molecule
i | COC(=O)N1CCc2ccc(F)cc2C1C(=O)Nc1ccccc1SC (centres undefined)
i | CCOc1ccccc1Oc1c(C)oc2cc(OC(=O)C(C)(C)C)ccc2c1=O

(next part)
GIRK2 act | molecule
i | COc1cccc(-c2csc(NC(=O)c3cn(C)nc3OC)n2)c1
i | CC(C)CCNC(=O)CCCCn1c(=O)c2ccccc2n(CC(=O)Nc2cccc(Cl)c2)c1=O
i | COc1ccc(C(=O)NCCS(=O)(=O)N2CCN(C(=O)c3ccco3)CC2)cc1
i | CCOC(=O)c1ccc(NC(=O)Cn2c(C)nc3c(c2=O)CCN(Cc2ccccc2)C3)cc1
i | COc1cc(OC)cc(C(=O)Nc2ccc(Cl)c3ncsc23)c1
i | Cc1ccc(Cl)cc1S(=O)(=O)N1CCN(CC(C)O)CC1 (centres undefined)
i | Cc1sc(NC(=O)COc2ccc(Cl)cc2)nc1-c1ccc2c(c1)NC(=O)CO2
i | COCCOC(=O)c1c(C)oc2ccc(OCC(=O)c3ccc(OC)cc3)cc12
i | O=C(Cn1nc2ccc(-c3ccccc3)nn2c1=O)Nc1cccc(Cl)c1
i | CCc1ccccc1OCC(=O)Nc1ccc(N(C)C)cc1
i | COc1ccc(C)c2sc(NC(=O)NC(C)C)nc12
i | Cc1ccc(-c2cc(C(=O)N3CCC(NC(=O)c4cc(C5CC5)[nH]n4)CC3)[nH]n2)cc1C
i | CCOc1ccc(C(=O)Nc2c3c(nn2CC(=O)NCc2ccccc2)CSC3)cc1
i | CSc1ncccc1C(=O)NCC1(O)CCOc2ccccc21 (centres undefined)
i | Cc1ccc(/C=C2\C=C(CC(=O)O)c3cc(F)ccc32)cc1
i | COc1cccc2sc(N(CCCN(C)C)C(=O)c3cc(C)nn3C)nc12
i | O=C(N1CCC(CSC2=NCCS2)CC1)C1(c2ccc(Cl)cc2)CCCC1
i | CC(C)Cn1c(N2CCN(CC(N)=O)CC2)nc2c1c(=O)[nH]c(=O)n2C
i | CCOC(=O)N1CCN(C2CC(=O)N(c3ccc(C)cc3C)C2=O)CC1 (centres undefined)
i | O=C(CN1CCOCC1)Nc1ncc(Cc2ccc(F)cc2)s1
i | CCCCN1CC(c2nc3ccccc3n2Cc2ccc(C)cc2)CC1=O (centres undefined)
i | Cc1ccccc1NC(=O)CN1C(=O)NC(CCC(=O)O)(c2ccccc2)C1=O (centres undefined)
i | COc1cc(/C=C/C(=O)N2CCC(Oc3ncccc3Cl)CC2)cc(OC)c1OC
i | O=C(COC(=O)c1cc(=O)[nH]c2ccccc12)c1ccc(Cl)cc1Cl
i | COc1cccc(S(=O)(=O)Nc2cccc(C(=O)N3CCOCC3)c2)c1
i | CSc1ccccc1NC(=O)c1ccc(S(=O)(=O)NCc2cccnc2)o1
i | O=C(Nc1ccc2c(c1)OCO2)N(Cc1ccsc1)C1CC1
i | Cc1cc(CCNC(=O)c2csc(-c3ccccc3)n2)on1
i | CN(C)S(=O)(=O)c1ccc(C(=O)NCC(O)c2ccoc2)cc1 (centres undefined)
i | CCOCC(=O)N1CCN(Cc2nnnn2-c2ccccc2)CC1
i | CCn1nc(C)cc1C(=O)N1CCc2cc(OC)ccc2C1

Compound activity deposited in PubChem by Vanderbilt University.
